Assay outcomes: PubChem, National Center for Advancing Translational Sciences (NCATS)
Rango release inh – qHTS Assay for Inhibitors of RanGTP induced Rango (Ran-regulated importin-beta cargo) - Importin beta complex dissociation; Snurportin-1 (Homo sapiens) + GTP-binding nuclear protein Ran (Homo sapiens) + Importin …; Biochemical FRET Rango-importin beta, RanGTP-induced dissociation; Potency, µM (doses to about 46.1 µM), for the others: top-dose activity change, negative = inhibition; hit rate 0.071% among 340,000; active means falling FRET ratio curve, often poorly fitted, with flat reads before Ran was added; inconclusive means other falling curves, or compound fluorescence or quenching; inactive means flat or rising ratio curve;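 note: potency is the fitted concentration of half-maximal effect; % of control where 0% means no effect; nearly all actives have a fitted effect of over 45% in size; -100% = wells without RanGTP and RCC1; the record marks most hits as doubtful in a second field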
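Two FRET readings bracket the reaction: one 5 min after compound meets Rango–importin beta, another 45 min after RanGTP-RCC1 (0.6 uM Ran, 0.2 uM RCC1, 2 mM GTP) is added. Only the second defines inhibition.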
Rango-impB inh – qHTS Assay for Inhibitors of Rango (Ran-regulated importin-beta cargo) - Importin beta complex formation; Rango CFP/YFP FRET sensor + importin beta, 45 min; hit rate 0.031% among 340,000; Potency, µM (titrated, usually from 92.2 µM), without a hit: at the highest dose inhibition of complex formation; active = rising FRET ratio curve, often small or poorly fitted; inconclusive = mostly compound fluorescence or quenching in the first reads; inactive = flat curves in all reads;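 note: potency is the fitted concentration of half-maximal effect; 0% = DMSO wells and 100% = buffer wells lacking importin beta; nearly all actives have a fitted effect of over 15% in size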
Target sequence (Q14974 whole entry, looked up): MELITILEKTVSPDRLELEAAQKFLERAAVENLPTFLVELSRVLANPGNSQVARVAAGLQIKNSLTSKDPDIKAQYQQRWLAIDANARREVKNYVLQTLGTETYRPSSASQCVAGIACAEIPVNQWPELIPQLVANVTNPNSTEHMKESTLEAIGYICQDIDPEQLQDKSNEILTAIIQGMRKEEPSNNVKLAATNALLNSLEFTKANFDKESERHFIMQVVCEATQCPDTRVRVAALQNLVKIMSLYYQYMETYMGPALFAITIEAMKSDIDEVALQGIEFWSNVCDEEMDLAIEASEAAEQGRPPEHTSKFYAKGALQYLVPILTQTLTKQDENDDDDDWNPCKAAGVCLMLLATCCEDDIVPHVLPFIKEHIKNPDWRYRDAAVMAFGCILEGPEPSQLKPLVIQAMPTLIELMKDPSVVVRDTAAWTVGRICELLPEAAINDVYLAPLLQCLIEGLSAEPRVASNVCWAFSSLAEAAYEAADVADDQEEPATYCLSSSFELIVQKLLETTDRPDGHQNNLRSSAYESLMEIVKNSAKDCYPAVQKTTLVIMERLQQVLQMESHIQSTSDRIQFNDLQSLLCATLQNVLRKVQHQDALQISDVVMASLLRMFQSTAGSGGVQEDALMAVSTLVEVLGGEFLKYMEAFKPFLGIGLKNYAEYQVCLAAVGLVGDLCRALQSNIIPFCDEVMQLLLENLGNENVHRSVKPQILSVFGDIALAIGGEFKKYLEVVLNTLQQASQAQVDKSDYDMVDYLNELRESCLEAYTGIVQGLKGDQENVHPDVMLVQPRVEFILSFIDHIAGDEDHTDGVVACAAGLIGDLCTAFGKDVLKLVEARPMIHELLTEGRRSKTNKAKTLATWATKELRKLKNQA
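FRET biosensor (snurportin 1 IBB flanked by EYFP and cerulean), 50 nM, with compound 5 min, then 0.125 microM importin beta in PBS, 1 mM DTT, 0.02% Tween-20, 0.1% BSA. CFP/YFP ratio read after 45 min at room temperature; pre-read flags interference.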
miR-21 FLuc – qHTS Assay for Modulators of miRNAs and/orActivators of miR-21; HeLa miR-21 FLuc reporter, luciferase, 48 h; Potency, µM (highest dose often 38.3 µM), without a hit: top-dose reporter change, positive = more light; AID 2288, 2010; 340,000 tested, under 10 active; active = well fitted rising curve with a large enough effect; inconclusive = small, poorly fitted or top-dose-only effect; inactive = no such curve, though single readings can be large or run the other way;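 note: % of control where 0% means no effect; miR-21 action dims this reporter so a rising signal means less miR-21 action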
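Compounds were titrated across several concentrations (up to approximately 40 uM) and incubated 48 hours with HeLa miR-21-FLuc reporter cells (miR-21 target sequence downstream of FLuc, endogenous miR-21). Readout was firefly luciferase luminescence after lytic detection reagent.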
GLA inh pH 4.5 – qHTS Assay for Inhibitors of Human alpha-Galactosidase at pH 4.5. Alpha-galactosidase A (Homo sapiens), P06280. purified enzyme, 4-MU-alpha-Gal fluorescence, pH 4.5. activity change, negative = inhibition, % at 105 µM. 230,000 tested, under 10 active. AID 1467, 2008; inconclusive = small, poorly fitted or top-dose-only inhibition, or a rising curve; inactive = flat fitted curve, though single readings scatter; no compound was filed as active;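 note: 0% = full activity with enzyme and -100% = basal without enzyme; dose as in the result columns while the protocol names 77 µM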
* hit, by the source's call; u = inconclusive; x = no result given; & = joins results of further samples. The list is partial; the hit share may differ from the screen's.

Each structure is followed by: Rango release inh | Rango-impB inh | miR-21 FLuc | GLA inh pH 4.5
CC(C)=C1SC(N2CCN(c3ccc(C)c(Cl)c3)CC2)=NC1=O
 : -8% | -0.6% | -3% | -2
COc1ccc(OC)c(C(=O)/C=C/c2cccnc2)c1
 : 4% | -5.3% | u | x
CC(=O)C1=C(C)NC(SCC(=O)c2ccc(F)cc2)=C(C#N)C1CC(C)C (stereo unspecified)
 : u | u | -47% | 2
O=C(Nc1ccc(-c2nc3ccccc3[nH]2)cc1)c1c(F)c(F)c(F)c(F)c1F
 : 5% | -0.9% | -2% | -3
CCCNC(=O)Cc1c(OC)ccc2cc(Br)ccc12
 : 8% | -0.2% | 2% | -4
CCS(=O)(=O)c1ccc2oc(Nc3cc(Cl)ccc3OC)nc2c1
 : 8% | 2.9% | -9% | x
Cc1ccc2c(=O)oc(N(C)C)nc2c1
 : 0% | 0.5% | -2% | 3
CCCCC(=O)NNC(=O)N1c2ccccc2Sc2ccccc21
 : -1% | 2.5% | -7% | x
O=c1c2ccccc2[nH]c(=S)n1Cc1cccnc1
 : -18% | -1.1% | -14% | 3
Cn1cc2ccc(N)cc2n1
 : -3% | -0.6% | 0% | 3
O=C(COC(=O)CCSc1ccccc1)NCc1ccccc1
 : 17% | -1.4% | -11% | 0
COc1ccc(Br)cc1/C=N/NC(=O)c1ccc(OC)c(OC)c1
 : -10% | 1.6% | 10% | 3
COc1cccc(C(=O)N2CCN(C3CCN(Cc4ccccc4)CC3)CC2)c1
 : x | x | -2% | -1
CCNc1sc(C(=O)c2cccs2)c(N)c1-c1nc2ccccc2s1
 : u | u | 0% | u
COc1cccc(NC(=O)CCN2C(=O)c3ccccc3Sc3ncccc32)c1
 : -3% | 0.0% | u | x

Ordered by value in Rango release inh (ascending): three of the compounds above.
| SMILES | Rango release inh | Rango-impB inh | miR-21 FLuc | GLA inh pH 4.5 |
| --- | --- | --- | --- | --- |
| Cc1ccc2c(=O)oc(N(C)C)nc2c1 | 0% | 0.5% | -2% | 3 |
| COc1ccc(OC)c(C(=O)/C=C/c2cccnc2)c1 | 4% | -5.3% | u | x |
| O=C(Nc1ccc(-c2nc3ccccc3[nH]2)cc1)c1c(F)c(F)c(F)c(F)c1F | 5% | -0.9% | -2% | -3 |

More records:
Each structure is followed by: Rango release inh | Rango-impB inh | miR-21 FLuc | GLA inh pH 4.5
O=C(NC(O)C(=O)c1ccccc1)c1cccs1 (stereo unspecified)
 : -7% | 2.8% | -1% | 4
CCOC(=O)C1CCN(C(=O)c2ccccc2NC(=O)c2ccc(Br)cc2)CC1
 : 16% | -0.4% | 0% | 3
O=C(c1cc2nc(-c3ccc(Cl)cc3)cc(C(F)(F)F)n2n1)N1CCOCC1
 : 14% | -5.3% | -2% | 5
CCOC(=O)c1cc2c(=O)n3ccccc3nc2n(C(C)C)c1=NC(=O)c1c(-c2ccccc2Cl)noc1C
 : -25% | u | -7% | -4
CCCCCCN(C(=O)CCCCCN1C(=O)NC(c2ccc(-c3ccccc3)cc2)C(C(=O)OCc2ccccc2)=C1C)C(C(=O)NCCCC)c1ccc(O)cc1 (stereo unspecified)
 : x | x | -3% | 1&4
Cc1ccc(Sc2c(C)[nH]n(C(C)(C)C)c2=O)cc1
 : -6% | 7.3% | 2% | -9
Cc1ccc(NC2c3ncccc3C(=O)N2Cc2ccco2)c(C)c1 (stereo unspecified)
 : -1% | 1.1% | 1% | 1
O=C(O)C1=CC[C@@H](c2ccc(Cl)cc2)N(S(=O)(=O)c2ccc(Cl)cc2)[C@H]1c1ccc(F)cc1
 : 7% | -0.6% | x | x
CN(C)c1ccc(S(=O)(=O)N2CCC(Cc3ccccc3)CC2)cn1
 : 18% | 7.3% | x | x
O=C(Nc1ccc2c(c1)OCCO2)c1cccc(Cl)c1Cl
 : 0% | -0.4% | -35% | x
O=C(CSc1nc2ncc(Cl)cc2[nH]1)c1c[nH]c2ccccc12
 : -14% | 0.6% | -1% | -2
CCCC(C(=O)n1nc(C)cc1C)C(NS(=O)(=O)c1ccc(C)cc1)c1ccccc1 (stereo unspecified)
 : -20% | -4.8% | 15% | -7
Cc1n[nH]c(=O)c2c(NC(=O)CSc3c(Cl)cccc3Cl)oc(C)c12
 : 1% | -2.2% | x | x
Cc1cc(C(=O)CSc2nnc(-c3ccco3)o2)c(C)n1CC1COc2ccccc2O1 (stereo unspecified)
 : -6% | -0.1% | 13% | 5
COc1ccccc1C=Cc1ccnc2ccccc12
 : -8% | -0.8% | x | x

Following part.
Each structure is followed by: Rango release inh | Rango-impB inh | miR-21 FLuc | GLA inh pH 4.5
CN(Cc1ccccc1)C(=C(Cl)Cl)C(=C1NCCN1)[N+](=O)[O-]
 : 3% | 1.2% | 1% | 0
O=c1cc(CN2CCN(c3cccc(Cl)c3)CC2)c2cc(O)c(-c3ccccc3)cc2o1
 : 0% | -4.8% | 4% | x
O=S(=O)(c1ccc2ccccc2c1)N1CCN(S(=O)(=O)N2CCOCC2)CC1
 : -8% | 0.1% | -5% | -3
Cc1ccc(C)c(OCc2n[nH]c(=S)o2)c1
 : -21% | -4.4% | -5% | -3
COC(=O)c1ccccc1NC(=O)c1cnc2sccn2c1=O
 : 7% | -2.4% | -2% | 4
O=C(NCc1ccc2c(c1)OCO2)c1ccc2c(c1)OCCO2
 : 4% | -4.1% | -32% | -7
CC[n+]1c(C)cc(C)n1-c1ccccc1
 : 4% | -0.3% | -1% | -3
CCC(CC)C(=O)Nc1nnc(S(=O)(=O)N2CCCc3ccccc32)s1
 : 14% | -1.7% | 10% | x
O=C(NCc1cccc(Cl)c1)c1ccncc1
 : -5% | 0.8% | -28% | x
Cn1c(=O)n(Cc2ccco2)c(=N)c2c3c(sc21)CCCC3
 : 20% | -0.6% | -1% | 3
COc1ccc(NC(=O)Cn2nnc(C(=O)NCc3cccs3)c2N)cc1OC
 : 23% | 8.0% | 2% | x
Cn1cccc1/C=N/NC(=O)C(O)c1ccccc1 (stereo unspecified)
 : 4% | -1.5% | -9% | 13
O=C(Nc1ccccc1OC(F)F)c1ccc(Br)o1
 : 3% | -1.3% | -11% | -19
COc1cccc(NC(=O)c2ccc3c(c2)OCO3)c1
 : -10% | 0.4% | -34% | x
CCc1cc2c(=O)c(-c3ccc4c(c3)OCCO4)c(C)oc2cc1OS(C)(=O)=O
 : -11% | -3.6% | 4% | -3

Random excerpt: two entries already listed
Each structure is followed by: Rango release inh | Rango-impB inh | miR-21 FLuc | GLA inh pH 4.5
CCc1cc2c(=O)c(-c3ccc4c(c3)OCCO4)c(C)oc2cc1OS(C)(=O)=O
 : -11% | -3.6% | 4% | -3
O=c1cc(CN2CCN(c3cccc(Cl)c3)CC2)c2cc(O)c(-c3ccccc3)cc2o1
 : 0% | -4.8% | 4% | x

(list continues)
Each structure is followed by: Rango release inh | Rango-impB inh | miR-21 FLuc | GLA inh pH 4.5
COc1ccc(N(Cc2cc3ccccc3[nH]c2=O)S(=O)(=O)c2ccccc2)cc1
 : 0% | 0.4% | 10% | -12
N#CC1=C(N)SC(N)=C(C#N)C1c1ccnc2ccccc12
 : u | u | -2% | 1
CNC(=S)NN=C(C)CCCC(C)=NNC(=S)NC
 : 3% | -3.3% | x | x
CC(C)(C)CN1C(N)=NC[C@@H]1c1ccccc1
 : -8% | -0.8% | x | x
Cc1cc(OCC(=O)Nn2cnnc2)ccc1Br
 : -3% | 0.2% | -1% | 3
CN1c2ccccc2-c2nc3ccccc3n2C1c1ccccn1 (stereo unspecified)
 : -25% | u | -9% | 0
CC(C)(C)c1ccc(C(=O)N2CCN(CCNC(=O)C(=O)Nc3ccc(F)cc3)CC2)cc1
 : -18% | 5.0% | 0% | x
c1ccc(CCNc2nnnn2-c2ccccc2)cc1
 : -6% | -3.7% | -23% | 1
Cc1noc(C)c1CSc1nnc2ccccn12
 : 4% | 2.4% | -7% | 3
CCN(CC)CCN(C)Cc1nc(C(c2ccccc2)c2ccccc2)no1
 : 6% | -0.6% | 1% | x
CCOc1cccc2cc(-c3csc(NC(=O)CCC(=O)N4CCC(C)CC4)n3)c(=O)oc12
 : 0% | -0.1% | -7% | 7
CC(Oc1ccc2c3c(c(=O)oc2c1)CCCC3)C(=O)NC1CC(C)(C)NC(C)(C)C1 (stereo unspecified)
 : -12% | -2.9% | -1% | x
CC(NC(=O)c1cccs1)C(=O)NC1=NCCS1 (stereo unspecified)
 : 7% | 0.0% | -12% | 8
Cc1ccc(-c2csc(NC(=O)c3cccc(C)c3)c2C(=O)O)cc1
 : 5% | -0.8% | x | x
COCCNC(=O)CN(C(=O)CCC(=O)Nc1nccs1)c1ccccc1OC
 : 5% | 0.2% | -3% | -11

In another format: 4 of the compounds above.
Cn1cccc1/C=N/NC(=O)C(O)c1ccccc1 (stereo unspecified)
- Rango release inh = 4%
- Rango-impB inh = -1.5%
- miR-21 FLuc = -9%
- GLA inh pH 4.5 = 13

O=C(Nc1ccccc1OC(F)F)c1ccc(Br)o1
- Rango release inh = 3%
- Rango-impB inh = -1.3%
- miR-21 FLuc = -11%
- GLA inh pH 4.5 = -19

COc1cccc(NC(=O)c2ccc3c(c2)OCO3)c1
- Rango release inh = -10%
- Rango-impB inh = 0.4%
- miR-21 FLuc = -34%
- GLA inh pH 4.5 = x

CCc1cc2c(=O)c(-c3ccc4c(c3)OCCO4)c(C)oc2cc1OS(C)(=O)=O
- Rango release inh = -11%
- Rango-impB inh = -3.6%
- miR-21 FLuc = 4%
- GLA inh pH 4.5 = -3

(listing goes on)
Each structure is followed by: Rango release inh | Rango-impB inh | miR-21 FLuc | GLA inh pH 4.5
COC(=O)c1cc(CN2CCN(c3ccccc3)CC2)ccc1O
 : 5% | -0.3% | -4% | x
Cc1c(Br)cccc1NC(=O)c1sccc1-n1cccc1
 : 12% | 5.4% | -11% | -6
C/C(=N\NC(=O)COc1cc(C)cc(C)c1)c1ccc(N2CCOCC2)cc1
 : 10% | 3.0% | -16% | -1
CC1(C)Cc2cccc(OCC(=O)OCc3nnc(-c4ccccc4)o3)c2O1
 : 16% | -1.9% | x | x
C#CCOc1ccccc1C(N)=O
 : u | -0.5% | 0% | 2
Cn1c(=O)[nH]c(=O)c2c1nc(N1CCCCCC1)n2CCCSc1nnnn1-c1ccccc1
 : x | x | -15% | 0
Cc1ccc(C(=O)OCC(=O)Nc2ccccc2C(F)(F)F)cc1S(=O)(=O)N1CCOCC1
 : -1% | 1.4% | 0% | 9
NC(N)=N/N=C/c1ccccc1
 : -3% | 0.7% | -3% | -6
CCC1(CC)NC(=O)N(CC(=O)OCC(=O)NC(=O)c2ccccc2OC)C1=O
 : 5% | 0.1% | x | x
O=C(CN1C(=O)CSc2ncccc21)Nc1cccc(Cl)c1
 : 4% | -0.8% | -26% | x
O=C(c1ccc(NS(=O)(=O)c2ccc(F)cc2)cc1)N1CCN(c2ccccc2O)CC1
 : -9% | -1.0% | 5% | x
COc1ccccc1C(=O)Nc1ccc2nc3n(c(=O)c2c1)CCCC3
 : 10% | 0.6% | -31% | x
CC(C)N1CC(C(=O)Nc2cc(Cl)cc(Cl)c2)CC1=O (stereo unspecified)
 : 11% | 0.3% | -2% | x
Cc1nnc(SCc2ccccc2Cl)n(N)c1=O
 : -12% | 4.8% | 1% | -23
O=C(O)CCCCCCCCc1cn(CC2CCCCC2)nn1
 : -9% | 0.1% | 1% | x
CC1CCCN(C2=NC(=O)/C(=C/c3cn(-c4ccccc4)nc3-c3cccc(S(=O)(=O)N(C)C)c3)S2)C1 (stereo unspecified)
 : 1% | -0.1% | -6% | -7

Copied from above for reference:
Each structure is followed by: Rango release inh | Rango-impB inh | miR-21 FLuc | GLA inh pH 4.5
Cn1c(=O)[nH]c(=O)c2c1nc(N1CCCCCC1)n2CCCSc1nnnn1-c1ccccc1
 : x | x | -15% | 0
Cc1ccc(C(=O)OCC(=O)Nc2ccccc2C(F)(F)F)cc1S(=O)(=O)N1CCOCC1
 : -1% | 1.4% | 0% | 9
